StopGo FLuc: lowers the firefly signal of an FMDV 2A StopGo reporter | HEK cells with a luciferase reporter of 2A StopGo recoding | actives 0.23% (n = 120,000) | AID 1745856 | Potency, µM (titrated, usually from 57.5 µM), for the others: at the top dose signal change, negative = less light; active = well fitted falling curve with a large enough effect; inconclusive = small, poorly fitted or top-dose-only effect; inactive = no such curve, though single readings can be large or run the other way; note: nearly all actives have a fitted effect of over 60% in size; overnight with compound
StopGo RLuc: FMDV 2A StopGo reporter, Renilla signal. HEK cells with a luciferase reporter of 2A StopGo recoding. AID 1745857. actives 0.32% (n = 120,000). Potency, µM (top dose mostly 57.5 µM), for inactives: top-dose signal change, negative = less light; active means well fitted falling curve with a large enough effect; inconclusive means small, poorly fitted or top-dose-only effect; inactive means no such curve, though single readings can be large or run the other way; note: nearly all actives have a fitted effect of over 55% in size; overnight with compound
* = called active by the depositor; ? = inconclusive; & = joins results of further samples; [ ] = dose if it differs, or a comment. % is set by controls: 0 for no effect and ±100 for the full control effect; potency is the fitted concentration of half-maximal effect.

Below each SMILES: StopGo RLuc | StopGo FLuc
Cc1cccc(NC(=O)CNC(=O)COC(=O)Cc2n[nH]c(=O)c3ccccc23)c1C
→ -12% | -7%
CCOC(=O)c1ccc(N2C(=O)Cc3cc(OCC)c(OCC)cc3C2c2ccccc2)cc1 (stereo not given)
→ 6% | -12%
CCOc1ccccc1CN1CCc2nc(Nc3ccccc3)ncc2C1
→ -7% | 16%
COC(=O)c1ccc(OC(=O)C23CCC(C)(C(=O)C2)C3(C)C)cc1 (stereo not given)
→ -7% | 8%
CC(C)(C)c1ccc(C2CC2C(=O)N/N=C/c2ccc(Cl)cc2)cc1 (stereo not given)
→ 4% | 9%
O=C(CSc1nc2ccccc2o1)Nc1ccc(Cl)c(Cl)c1
→ 10% | 125%[activator]
CCCC(=O)c1cn(Cc2ccc(C#N)cc2)c2ccccc12
→ 22% | -17%
Cn1nc(C(=O)NC2CCCc3ccccc32)c2ccccc2c1=O (stereo not given)
→ 38%[activator] | 1%
COc1ccc(OC)c(CNC(=O)CCCn2c(=O)c3cccn3c3cccnc32)c1
→ ? | -2%
CCC1(c2cnc[nH]2)Cc2ccccc2C1
→ -8% | -12%

Looked up one by one from above:
Below each SMILES: StopGo RLuc | StopGo FLuc
CCCC(=O)c1cn(Cc2ccc(C#N)cc2)c2ccccc12
→ 22% | -17%
Cn1nc(C(=O)NC2CCCc3ccccc32)c2ccccc2c1=O (stereo not given)
→ 38%[activator] | 1%
COc1ccc(OC)c(CNC(=O)CCCn2c(=O)c3cccn3c3cccnc32)c1
→ ? | -2%
COC(=O)c1ccc(OC(=O)C23CCC(C)(C(=O)C2)C3(C)C)cc1 (stereo not given)
→ -7% | 8%
CCC1(c2cnc[nH]2)Cc2ccccc2C1
→ -8% | -12%
O=C(CSc1nc2ccccc2o1)Nc1ccc(Cl)c(Cl)c1
→ 10% | 125%[activator]
CC(C)(C)c1ccc(C2CC2C(=O)N/N=C/c2ccc(Cl)cc2)cc1 (stereo not given)
→ 4% | 9%

More records follow.
Below each SMILES: StopGo RLuc | StopGo FLuc
CC(C)C(=O)Oc1ccc2c(-c3cc4ccccc4oc3=O)cc(=O)oc2c1
→ 0% | -2%
CCOC(=O)C(N)c1ccccc1 (stereo not given)
→ 18% | 26%
O=C(COc1cc(OCC(=O)N2CCNC2=O)c(Cl)cc1Cl)N1CCNC1=O
→ 5% | -4%
COc1ccc(-c2noc(-c3nnn(-c4ccc(C(C)C)cc4)c3C)n2)cc1OC
→ -6% | 0%
COc1ccc2c(=O)c(-c3ccccc3)c(C)oc2c1
→ -6% | 0%
COc1cccc(CNC(=O)c2cc3ccccc3[nH]2)c1
→ 18% | 0%
O=c1[nH]c(SCc2cccc(Cl)c2)nc2c1CCC2
→ -9% | -7%
Cc1ccc(-n2nnc(C(=O)NCc3ccccn3)c2C)cc1F
→ -2% | 79%[activator]
Cc1ccc(-c2cc(C(=O)N3CCN(S(=O)(=O)c4ccc(Br)cc4)CC3)[nH]n2)c(C)c1
→ 11% | 11%
CCc1nn2c(ncc3c(=O)n(-c4ncn[nH]4)ccc32)c1-c1ccc(F)cc1
→ -3% | 1%
CCC(=O)Oc1c(Sc2ccc(Cl)cc2)c(C)nn1-c1ccccc1
→ 6% | ?
O=C1CN(C(=O)Cn2ccc3cc(OCc4ccccc4)ccc32)CCN1
→ 16% | 192%[activator]
Cc1cccc(N2CCN(S(=O)(=O)c3ccc(F)c(C(=O)Nc4cccc(Cl)c4C)c3)CC2C)c1 (stereo not given)
→ -9% | 1%
Cc1c(Cl)ccc2c(C(=O)NC3CCC(C)CC3)cc(-c3cccnc3)nc12 (stereo not given)
→ 25% | 0%
Cc1oc2c(c(C)cc3oc(=O)c(CC(=O)NCCc4ccccc4)c(C)c32)c1C
→ -14% | -12%
CC(C)(C)c1ccc(NC(=O)CSc2nc3ccccc3o2)cc1
→ -9% | 67%[activator]
CCc1c(C)sc2c1CCN(Cc1ccccc1C#N)C2c1ccccc1 (stereo not given)
→ 16% | 18%
Cc1c2cnn(CC(=O)N3CCN(c4ccc(F)cc4)CC3)c(=O)c2c(C)n1Cc1ccc(F)cc1
→ ? | 34%[activator]
FC(F)(F)c1cccc(CNCc2cccc(C(F)(F)F)c2)c1
→ 7% | 12%
CC(C)c1ccc(C(=O)N/N=C/CCc2ccccc2)cc1
→ 5% | 30%
Cc1cc(C(=O)OCC(=O)c2cccc([N+](=O)[O-])c2)c2cccc(C)c2n1
→ -13% | -11%
O=C(NCCN1CCOCC1)c1cc2nc(-c3cccs3)cc(C(F)(F)F)n2n1
→ 21% | ?
O=C(NCc1ccccn1)c1ccc2c(c1)N(Cc1ccccc1)C(=O)c1ccccc1S2=O (stereo not given)
→ 42%[activator] | -16%
Fc1ccc(C(=Nc2ccccc2)c2ccc(F)cc2)cc1
→ 3% | -10%
COc1ccc(CNC(=O)CCc2nc(-c3ccc(OC)cc3)no2)cc1
→ 16% | 0%
O=S(=O)(c1ccc(-c2cnc(C3CC3)o2)cc1)N1CCN(c2ccccc2F)CC1
→ -17% | -21%
Cc1ccc2nc(C)cc(Nc3ccc(C)c(C)c3)c2c1
→ ? | ?
O=[N+]([O-])c1cccc2ccc(/C=C/c3ccc(OC(F)F)cc3)nc12
→ -5% | 0%
COc1ccc(N2CC(NC(=O)c3cc4ccccc4o3)CC2=O)cc1 (stereo not given)
→ -8% | -21%
Cc1cccc(NC(=O)C(=O)NCCc2csc(-c3ccc(F)cc3)n2)c1C
→ -8% | 2%
CCC(C)(C)C1CCc2c(sc(NC(=O)C3CC3c3ccccc3)c2C#N)C1 (stereo not given)
→ 3% | -4%
CCCCCc1c(C)nc(Nc2nc(C)c3cc(OCC)ccc3n2)[nH]c1=O
→ -1% | 8%
Clc1ccc(C2Cc3ccccc3N2)cc1 (stereo not given)
→ 8%[1.06 µM] | 86%[activator]
CCOC(=O)[C@H](CCc1ccccc1)N[C@H]1CCc2ccccc2N(CC(=O)O)C1=O
→ 7% | -4%
CC(C)C(OC(=O)Cc1cccc(C(F)(F)F)c1)C(=O)NC(N)=O (stereo not given)
→ 8% | 31%
Clc1cc(Cn2nnc(-c3ccccc3Br)n2)cc2c1OCCCO2
→ 11% | 109%[activator]
CCN(Cc1ccc(OC)c(OC)c1)C(=O)c1oc2ccc(Br)cc2c1C
→ ? | ?
CC1(C)CC(=O)C2=C(C1)N(Cc1ccccc1)C(C1CCCCC1)=NC2(C(F)(F)F)C(F)(F)F
→ -5% | -3%
CC(C)C(NC(=O)Cc1ccccc1)C(=O)N1CCCC1 (stereo not given)
→ -1% | -9%
Cn1nc(C(C)(C)C)cc1NC(=O)C(C)(C)Oc1ccc(Cl)cc1
→ -14% | -9%
CCCC1=Nc2cc(C(=O)NCCOC)ccc2Sc2ccccc21
→ 19% | 0%
Cc1ccc(Cn2nc(C)c(C(=O)NCc3cc(Cl)c4c(c3)OCCCO4)c2Cl)cc1
→ ? | ?
CCOc1cc(C)c(C(C)C)cc1S(=O)(=O)n1ccnc1C(C)C
→ 134%[activator] | -2%
O=C1CC(c2ccccc2)Cc2[nH]c(=O)c(C(=O)Nc3ccc(OC(F)(F)F)cc3)cc21 (stereo not given)
→ -8% | -9%
CC(C)N1CCC(NC(=O)c2cccc3ccccc23)CC1
→ -11% | 1%
CNS(=O)(=O)c1cn(CC(=O)N2CCN(c3ccc(C)cc3C)CC2)cc1S(=O)(=O)NC
→ -9% | -23%
CCc1cc(C(=O)Nc2ccccc2C#N)cs1
→ 9% | 0%
C/C(=N\N=C(N)N)C1=CC(C)(C)CCC1
→ -8% | -7%
O=C(OCC(=O)N1c2ccccc2Sc2ccccc21)c1ccccc1
→ 11% | 15%
Cc1cc(C)cc(NC(=O)CN2C(=O)CN=C(c3ccccc3)c3cc(Cl)ccc32)c1
→ -17% | -29%

Following part
Below each SMILES: StopGo RLuc | StopGo FLuc
CCCNC(=O)NS(=O)(=O)c1ccc(Cl)cc1
→ 19% | 4%[11.5 µM]
c1ccc(CCN2CCNCC2)nc1
→ 5% | -3%
CC1(C)CC(=O)CC(C)(C)N1
→ 4% | 11%
COc1cccc(NC(=O)CN2C(=O)COc3ccc(S(=O)(=O)N4CCCCCC4)cc32)c1
→ 27% | -21%
CCCCCCCCCCCCCCCCCCNC(=O)OC1CCN(C(=O)OC[C@H](COC(=O)N(Cc2cccc[n+]2CC)C(=O)c2ccccc2OC)OC)CC1
→ ? | ?
COc1cccc(CNc2ccc(N3CCOCC3)c(C(=O)O)c2)c1
→ -13% | -1%
COC(=O)c1ccc(OCC2c3cc(OC)c(OC)cc3CCN2C(=O)c2ccccc2C)cc1 (stereo not given)
→ 14% | 7%
Cc1ccc(NC(=O)c2ncoc2-c2ccco2)cc1
→ -5% | 149%[activator]
Cc1ccc(-n2c3c(c(=O)[nH]c2=O)C(NC(=O)c2ccccc2C)(C(F)(F)F)C(=O)N3)cc1 (stereo not given)
→ 2% | -2%
CCOc1ccc(C2c3c(oc4ccccc4c3=O)C(=O)N2Cc2ccc3c(c2)OCO3)cc1 (stereo not given)
→ -11% | -18%
Cc1ccc(C(C)C)c(OCC(=O)Nc2ccc(O)c(-c3nc4cc(Cl)ccc4o3)c2)c1
→ 0% | 0%
Cn1c(Cl)nc2c1c(=O)n(Cc1ccc(Cl)cc1Cl)c(=O)n2C
→ -10% | 0%
O=C(Nc1cc(Cl)c(Cl)cc1Cl)c1ccc(-c2ccccc2)cc1
→ -2% | 20%
CCNc1nc(N)nc(Oc2ccc(OCC(=O)OC)nn2)n1
→ -8% | 2%
O=C(COC(=O)C1CC(=O)N(c2nc(-c3ccc(Cl)cc3)cs2)C1)c1ccc(Cl)cc1 (stereo not given)
→ 4% | 6%
C=CCc1cc(/C=C2\NC(=O)NC2=O)cc(OCC)c1O
→ 9%[1.06 µM] | 0%
Cc1nn(-c2nc(-c3ccc(F)cc3)cc(C(F)(F)F)n2)c(C)c1Cl
→ -8% | 3%
O=C(/C=C/c1ccco1)Nc1ccc(SC2CCCC2)cc1
→ ? | 0%
CCOC(=O)c1oc2cc(OC(=O)c3ccccc3OC)ccc2c(=O)c1-c1ccc(OC)cc1
→ 35%[activator] | 0%
COc1ccc(C(=O)NCC(c2ccc3c(c2)OCO3)N2CCOCC2)cc1OC (stereo not given)
→ -12%&-1% | 0%&-14%
Cc1ccc(CCNC(=O)c2ccc3c(c2)c(C)c(C)n3Cc2ccccc2)cc1
→ -7% | 0%
COc1cc(NC(=O)CSc2ncc(-c3ccc(F)cc3)o2)cc(OC)c1
→ -1% | 12%
CC(NC(=O)Cn1cnc(C#N)n1)c1ccc(-c2ccccc2)cc1 (stereo not given)
→ -6% | 14%
Cc1ccc(-c2nc(C(=O)Nc3cccc(C#N)c3)c3n2CCCCC3)cc1
→ -2% | -12%
COC(=O)c1ccc(CNC(=O)c2nn(CC(C)C)c(=O)c3ccccc23)cc1
→ -6% | -11%
COc1ccc(N(CC(=O)Nc2cccc(Cl)c2)S(=O)(=O)c2c(C)[nH]c(=O)[nH]c2=O)cc1
→ -10% | -11%
O=S(=O)(c1ccccc1Br)N(Cc1cn(CC2CCCCC2)nn1)C1CC1
→ 16% | ?
Cc1ccc(C)c(NC(=O)Cn2nnc(C(=O)NCCc3ccccc3)c2N)c1
→ -11% | -12%
CC(C)C(NC(=O)c1cccc(Cl)c1)C(C)C
→ 4% | -7%
COC(=O)c1ccc2c(c1)N(CC(=O)Nc1ccc(C)c(C)c1)C(=O)c1ccccc1S2
→ 2% | 11%
COc1cc(Cl)c(C)cc1NC(=O)CCn1cnc2onc(-c3ccc(F)cc3)c2c1=O
→ -1% | 9%
COc1ccc(CC(=O)NC(c2ccccc2)c2ccc(C)cc2)c(OC)c1 (stereo not given)
→ 13% | -1%
Cc1nc2ccc(C(=O)OC(C)C(=O)NC(N)=O)cc2nc1C (stereo not given)
→ -5% | 167%[activator]
CCc1nc(-c2cc(S(=O)(=O)N3CCN(c4ccc(F)cc4)CC3)ccc2OC)no1
→ 20% | 5%
O=C(CCC1N=C2c3ccccc3N=C(SCc3ccccc3Cl)N2C1=O)N1CCN(c2ccccc2)CC1 (stereo not given)
→ 88%[activator] | -2%
COc1ccc(NC(=O)CSc2nc3c(c(=O)[nH]2)CCC3)cc1
→ -12% | 2%
Cc1c(-c2ccc(Cl)cc2)c(=O)oc2c(CN3CCN(C)CC3)c(O)ccc12
→ -14% | -19%
CCOc1ccccc1NC(=O)c1cnc(N2CCCCC2)c2ccccc12
→ 19% | 11%
Cn1cc(CCC(=O)NCc2ccc(Cl)cc2)c2ccccc21
→ -12% | 6%
COc1cc(OC)c2c(C)c(CC(=O)Nc3ccc4c(c3)OCCO4)c(=O)oc2c1
→ -3% | 169%[activator]
O=C(NCc1ccc(Cn2cccn2)cc1)c1cn[nH]c1-c1ccccc1
→ -17% | -9%
O=c1[nH]c(=O)n(Cc2ccccc2)c2c1CN(Cc1ccccc1)CN2
→ 3% | 13%
COc1ccc(S(=O)(=O)Nc2c(NC3CCCC3)c3ccccc3oc2=O)cc1Cl
→ 3% | 10%
Cn1c(=O)n(C)c2cc(N3CCCCC3)c(NC(=O)c3ccc(Cl)cc3)cc21
→ 21% | 37%[activator]
Cc1cc(N2CCN(C(C(=O)O)c3c[nH]c4cc(Cl)ccc34)CC2)nc2ccccc12 (stereo not given)
→ -14% | -11%
Cc1ccc2c(ccn2CCC(=O)Nc2nnc(CC(C)C)s2)c1
→ -15% | -13%
COc1ccc(/C=C2\Oc3cc(OS(=O)(=O)c4ccccc4)ccc3C2=O)c(OC)c1OC
→ ? | ?
Cc1cccc2nc(C(=O)N3CCN(c4cccc(Cl)c4)CC3)cn12
→ ? | ?
